# Yeast UUG start: modulators of yeast start codon fidelity, primary screen, whole organism, S. cerevisiae, single point, plate reader. S. cerevisiae UUG-firefly luciferase reporter, luminescence/redox ratio. activity score, % at 18.7 µM. 350,000 tested, 0.13% active;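 active = replicate mean at a twofold rise or more, about +100% in these data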;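 note: firefly luciferase made from a UUG start codon reports start codon fidelity; reporter light over untreated wells divided by growth signal over untreated wells; some hits fall short of that in this replicate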
# Starred values were filed as active, the others as inactive. A portion of the library; count on the stated rates, not on these rows.
Structure	Yeast UUG start
COc1ccc(-c2ccc3c(c2)[C@H]2[C@H](CCN2C(=O)Cc2ccccc2)[C@H](CO)N3C)cc1	-12
O=C(Nc1ccccc1F)N1C[C@@H]2[C@H](c3ccccc31)[C@@H](CO)N2C(=O)C1CC1	-11
COc1ccc(S(=O)(=O)N(C)C[C@@H]2Oc3ccc(NC(=O)CCC(F)(F)F)cc3C(=O)N([C@H](C)CO)C[C@@H]2C)cc1	0
C[C@@H]1CN([C@@H](C)CO)C(=O)CCCn2cc(nn2)CO[C@@H]1CN(C)S(=O)(=O)c1cccs1	-18
COc1ccc(S(=O)(=O)Nc2ccc3c(c2)C(=O)N([C@@H](C)CO)C[C@@H](C)[C@H](CN(C)C(=O)Nc2cccc4ccccc24)O3)cc1	15
CCCNC(=O)C[C@H]1C[C@H]2c3cc(NC(=O)Nc4ccc(OC)cc4)ccc3O[C@H]2[C@@H](CO)O1	-3
CC(=O)N1[C@H](CO)[C@H](c2ccccc2)[C@H]1CN(C)C(=O)c1ccccc1F	-3
C[C@@H]1CN([C@H](C)CO)C(=O)c2cc(NC(=O)c3ccncc3)ccc2O[C@@H]1CN(C)S(=O)(=O)c1cccs1	-11
CCC(=O)Nc1ccc2c(c1)C(=O)N(C)C[C@@H](OC)[C@H](C)CN(C(=O)Cc1ccccn1)[C@@H](C)CO2	-1
C[C@@H]1CN([C@H](C)CO)C(=O)c2cc(NC(=O)CCN3CCOCC3)ccc2O[C@H]1CN(C)C(=O)Nc1ccccc1	5
O=C(Nc1nccs1)[C@H]1[C@H](CO)[C@H]2Cn3c(cccc3=O)[C@H]2N1C(=O)C1CCCCC1	7
CN(C)CC(=O)N1CCCCN2[C@H](CO)[C@H](c3ccc(/C=C/c4ccccc4)cc3)[C@@H]2C1	-5
C[C@H](CO)N1C[C@H](C)[C@H](CN(C)C(=O)Nc2ccccc2)Oc2ccc(NC(=O)CCN3CCOCC3)cc2C1=O	0
COc1cccc(-c2ccc3c(c2)[C@H]2[C@H](CCN2S(=O)(=O)c2ccccc2C)[C@@H](CO)N3)c1	-3
CC(=O)N1C[C@@H]2[C@H](c3ccccc31)[C@@H](CO)N2C(=O)CC1CC1	-6
C[C@@H]1CN([C@@H](C)CO)C(=O)Cc2cc(NC(=O)CCN3CCOCC3)ccc2O[C@@H]1CN(C)Cc1ccc(Cl)c(Cl)c1	-3
CC(C)OC(=O)N(C)C[C@H]1OCc2ccccc2-c2c(n(C)c3ccccc23)C(=O)N([C@H](C)CO)C[C@H]1C	10
CN1CCN(C(=O)C[C@@H]2CC[C@@H]3[C@H](COC[C@@H](O)CN3C(=O)Nc3ccc(Cl)cc3)O2)CC1	4
Cc1cc(C(=O)Nc2cccc3c2O[C@H](CN(C)C(=O)Nc2c(C)noc2C)[C@H](C)CN([C@@H](C)CO)C3=O)n(C)n1	-10
C[C@H](CO)N1C[C@H](C)[C@@H](CN(C)C(=O)Nc2ccc(C(F)(F)F)cc2)Oc2c(NS(C)(=O)=O)cccc2C1=O	12
O=C(C[C@H]1CC[C@@H]2[C@H](COC[C@H](O)CN2Cc2nccs2)O1)NCc1ccc(Cl)cc1	-6
COc1cccc(-c2ccc3c(c2)[C@@H]2[C@@H](CCN2C(=O)CN(C)C)[C@H](CO)N3C)c1	-1
O=C([C@@H]1[C@@H](CO)[C@@H]2Cn3c(ccc(C4=CCCC4)c3=O)[C@H]1N2)N1CCCCC1	0
O=C(C[C@H]1CC[C@@H]2[C@H](COC[C@@H](O)CN2S(=O)(=O)c2ccc(Cl)cc2)O1)N[C@H]1CCN(Cc2ccccc2)C1	25
Cc1ccccc1-c1ccc([C@@H]2[C@@H](CO)N3CCCCN(C(=O)c4cccnc4)C[C@@H]23)cc1	-12
O=C(C[C@H]1CC[C@H]2[C@@H](COC[C@H](O)CN2C(=O)c2ccncc2)O1)NCc1cc(F)cc(F)c1	20
C[C@H](CO)N1C[C@H](C)[C@@H](CN(C)S(=O)(=O)c2ccccc2)Oc2ccc(NC(=O)c3ccncc3)cc2CC1=O	27
O=C(C[C@@H]1C[C@@H]2c3cc(NC(=O)CC4CC4)ccc3O[C@@H]2[C@H](CO)O1)NCc1ccccc1F	-4
COc1cccc(-c2ccc([C@@H]3[C@@H](CO)N4CCCCN(C(=O)c5ccc(F)cc5)C[C@H]34)cc2)c1	-7
Cn1cnc(S(=O)(=O)N2CC[C@@H]3[C@H]2c2cc(-c4ccccc4F)ccc2N[C@@H]3CO)c1	-4
CN1c2ccc(-c3ccc(C#N)cc3)cc2[C@@H]2[C@@H](CCN2C(=O)C2CCCCC2)[C@H]1CO	-6
C/C=C/c1ccc([C@H]2[C@@H](CNC(=O)c3ccncc3)N(C(C)=O)[C@H]2CO)cc1	-11
O=C(Nc1cc(F)ccc1F)N1CCCCN2[C@H](CO)[C@H](c3ccc(-c4ccncc4)cc3)[C@H]2C1	-3
CCCN1[C@@H]2c3ccc(-c4ccccc4)c(=O)n3C[C@@H]2[C@@H](CO)[C@@H]1C(=O)N[C@@H](C)c1ccccc1	14
CC(C)NC(=O)Nc1ccc2c(c1)C(=O)N([C@@H](C)CO)C[C@@H](C)[C@H](CN(C)S(=O)(=O)c1ccc(Cl)cc1)O2	0
CN1c2ccc(-c3ccccc3)cc2[C@@H]2[C@@H](CCN2C(=O)NC2CCCC2)[C@@H]1CO	-7
COCC(=O)Nc1ccc2c(c1)OC[C@H](C)N(C(=O)Cc1ccccn1)C[C@@H](C)[C@@H](OC)CN(C)C2=O	-2
CCCNC(=O)C[C@H]1C[C@H]2c3cc(NC(=O)CC4CC4)ccc3O[C@H]2[C@@H](CO)O1	-1
C[C@H]1CN([C@@H](C)CO)C(=O)Cc2cc(NC(=O)Nc3ccccc3)ccc2O[C@H]1CN(C)Cc1ccc2c(c1)OCO2	34
O=C(c1ccccn1)N1CC[C@@H]2[C@H](CO)Nc3ccc(-c4ccccc4)cc3[C@@H]21	0
O=C(c1ccc(F)cc1)N1CCCCN2[C@H](CO)[C@H](c3ccc(C#CC4(O)CCCC4)cc3)[C@H]2C1	2
O=C(NC1CCCC1)[C@H]1[C@H](CO)[C@H]2Cn3c(ccc(C4=CCCC4)c3=O)[C@@H]1N2CC1CC1	11
CO[C@H]1CN(C)C(=O)c2cc(NC(=O)C3CCC3)ccc2OC[C@H](C)N(C(=O)CN(C)C)C[C@H]1C	7
CO[C@@H]1CN(C)C(=O)c2cc(NC(=O)C3CC3)ccc2OC[C@@H](C)N(Cc2cc(F)ccc2F)C[C@H]1C	5
CCCC#Cc1ccc([C@H]2[C@H](CO)N3CCCCN(CC4CCOCC4)C[C@@H]23)cc1	17

# The closing five compounds of the part before come first, to join the parts.
molecule | Yeast UUG start
O=C(c1ccc(F)cc1)N1CCCCN2[C@H](CO)[C@H](c3ccc(C#CC4(O)CCCC4)cc3)[C@H]2C1 | 2
O=C(NC1CCCC1)[C@H]1[C@H](CO)[C@H]2Cn3c(ccc(C4=CCCC4)c3=O)[C@@H]1N2CC1CC1 | 11
CO[C@H]1CN(C)C(=O)c2cc(NC(=O)C3CCC3)ccc2OC[C@H](C)N(C(=O)CN(C)C)C[C@H]1C | 7
CO[C@@H]1CN(C)C(=O)c2cc(NC(=O)C3CC3)ccc2OC[C@@H](C)N(Cc2cc(F)ccc2F)C[C@H]1C | 5
CCCC#Cc1ccc([C@H]2[C@H](CO)N3CCCCN(CC4CCOCC4)C[C@@H]23)cc1 | 17
C[C@@H]1CN([C@@H](C)CO)C(=O)c2cccc(NC(=O)C3CCCCC3)c2O[C@H]1CN(C)C(=O)Nc1ccccc1 | 2
Cc1cccc(S(=O)(=O)N2CCCCN3[C@H](CO)[C@H](c4ccc(-c5cccnc5)cc4)[C@H]3C2)c1 | 6
O=S(=O)(c1ccc(F)cc1)N1CCCCN2[C@H](C1)[C@H](c1ccc(C3=CCCCC3)cc1)[C@@H]2CO | 13
C[C@H](CO)N1C[C@H](C)[C@H](CN(C)Cc2ccc3c(c2)OCO3)Oc2ccc(NS(=O)(=O)c3ccc(Cl)cc3)cc2C1=O | 5
O=C(c1ccc(F)cc1)N1C[C@@H]2[C@H](c3ccccc31)[C@@H](CO)N2C(=O)c1ccccc1 | 14
OC[C@H]1[C@H](c2ccc(C#Cc3ccccc3)cc2)[C@@H]2CN(CC3CCOCC3)CCCCN12 | -10
COc1ccc(S(=O)(=O)Nc2cccc3c2O[C@H](CN(C)Cc2ccc(C(=O)Nc4ccccc4N)cc2)[C@@H](C)CN([C@H](C)CO)C3=O)cc1 | 1
COc1ccc(S(=O)(=O)N2CC[C@H]3[C@@H](CO)N(C)c4ccc(-c5ccc(F)cc5)cc4[C@H]32)cc1 | -3
CN(C)CC#Cc1ccc([C@@H]2[C@@H](CO)N3CCCCN(C(=O)Nc4cc(F)ccc4F)C[C@@H]23)cc1 | -11
C[C@H]1CN([C@@H](C)CO)C(=O)c2cccc(N(C)C)c2O[C@H]1CN(C)S(=O)(=O)c1ccc(F)cc1 | 10
COc1ccc(NC(=O)Nc2ccc3c(c2)CC(=O)N([C@H](C)CO)C[C@H](C)[C@@H](CN(C)C(=O)Nc2ccc(F)cc2)O3)cc1 | 3
CCCC(=O)Nc1ccc2c(c1)OC[C@@H](C)N(Cc1ccc(-c3ccccn3)cc1)C[C@@H](C)[C@@H](OC)CN(C)C2=O | 11
O=C(NC[C@H]1[C@@H](c2ccccc2)[C@@H](CO)N1CC1CCCC1)c1ccncc1 | 0
C/C=C/c1ccc([C@H]2[C@H](CO)N3CCCCN(S(=O)(=O)c4ccc(OC)cc4)C[C@@H]23)cc1 | -6
CC(C)C#Cc1ccc([C@@H]2[C@H]3CN(C(=O)NC(C)C)CCCCN3[C@H]2CO)cc1 | -1
CO[C@@H]1CN(C)C(=O)c2ccc(NS(=O)(=O)c3ccccc3C)cc2OC[C@H](C)NC[C@H]1C | 19
C[C@H]1CN([C@@H](C)CO)C(=O)c2cccc(NS(=O)(=O)c3cccs3)c2O[C@H]1CN(C)S(=O)(=O)c1ccccc1 | -9
O=C(c1ccncc1)N1C[C@H]2[C@@H](c3ccccc31)[C@@H](CO)N2C(=O)Nc1cccc(F)c1 | -8
CN1c2ccc(-c3ccc(F)cc3)cc2[C@@H]2[C@@H](CCN2C(=O)c2ccccn2)[C@H]1CO | -2
CO[C@H]1CN(C)C(=O)c2ccc(NC(=O)C3CCCC3)cc2OC[C@H](C)N(CC2CC2)C[C@@H]1C | 1
CN(C[C@@H]1[C@@H](c2ccccc2)[C@H](CO)N1C(=O)C1CCC1)C(=O)c1ccccn1 | -6
O=C(C[C@H]1CC[C@H]2[C@@H](COC[C@@H](O)CN2C(=O)Nc2cc(Cl)cc(Cl)c2)O1)N1CCCCC1 | 50
O=C(c1ccc2c(c1)OCO2)N1CCCCN2[C@@H](CO)[C@H](c3ccc(-c4ccccc4)cc3)[C@@H]2C1 | 15
CC(C)OC(=O)N(C)C[C@@H]1OCc2ccccc2-c2c(n(C)c3ccccc23)C(=O)N([C@H](C)CO)C[C@@H]1C | 2
CCCC(=O)Nc1ccc2c(c1)C(=O)N(C)C[C@H](OC)[C@H](C)CN(Cc1cccc(F)c1)[C@@H](C)CO2 | -6

# Not a retest: an excerpt of the list.
molecule | Yeast UUG start
CN(C[C@@H]1[C@@H](c2ccccc2)[C@H](CO)N1C(=O)C1CCC1)C(=O)c1ccccn1 | -6
O=C(C[C@H]1CC[C@H]2[C@@H](COC[C@@H](O)CN2C(=O)Nc2cc(Cl)cc(Cl)c2)O1)N1CCCCC1 | 50
O=C(c1ccc2c(c1)OCO2)N1CCCCN2[C@@H](CO)[C@H](c3ccc(-c4ccccc4)cc3)[C@@H]2C1 | 15
CC(C)OC(=O)N(C)C[C@@H]1OCc2ccccc2-c2c(n(C)c3ccccc23)C(=O)N([C@H](C)CO)C[C@@H]1C | 2
CCCC(=O)Nc1ccc2c(c1)C(=O)N(C)C[C@H](OC)[C@H](C)CN(Cc1cccc(F)c1)[C@@H](C)CO2 | -6

# (next part)
molecule | Yeast UUG start
CCC(=O)N1[C@H](CO)[C@@H](c2ccccc2)[C@@H]1CN(CC)C(=O)c1cccc(F)c1 | 17
C/C=C/c1ccc([C@@H]2[C@@H](CO)N(C(=O)CC)[C@@H]2CNC(=O)C2CC2)cc1 | 12
O=C(c1cccnc1)N1C[C@H]2[C@@H](c3ccccc31)[C@@H](CO)N2C(=O)Nc1cccc(F)c1 | 7
C[C@@H]1CN([C@H](C)CO)C(=O)c2cc(NC(=O)c3ccncc3)ccc2O[C@H]1CN(C)C | -6
COCC(=O)Nc1ccc2c(c1)[C@@H]1C[C@H](CC(=O)NCc3ccccc3OC)O[C@H](CO)[C@@H]1O2 | -10

# Four entries out of the list above, sorted by their value in Yeast UUG start, highest first.
molecule | Yeast UUG start
CCC(=O)N1[C@H](CO)[C@@H](c2ccccc2)[C@@H]1CN(CC)C(=O)c1cccc(F)c1 | 17
C/C=C/c1ccc([C@@H]2[C@@H](CO)N(C(=O)CC)[C@@H]2CNC(=O)C2CC2)cc1 | 12
O=C(c1cccnc1)N1C[C@H]2[C@@H](c3ccccc31)[C@@H](CO)N2C(=O)Nc1cccc(F)c1 | 7
C[C@@H]1CN([C@H](C)CO)C(=O)c2cc(NC(=O)c3ccncc3)ccc2O[C@H]1CN(C)C | -6

# Assay outcomes deposited in PubChem BioAssay by Broad Institute.
